Screens (PubChem)
TRPML1 ag – human mucolipin-1 channel agonism; Q9GZU1; TRPML1-expressing cells, Ca2+ dye fluorescence, FDSS; host cell line not named in the record; reference of the full effect not given here; activation, % (test concentration not listed); 0.12% of 410,000 active; AID 624414; in the data active = activation above about 50%; inconclusive = about 30% to 50%; inactive = below about 30%; note: 0% is about no effect; the text of the record puts the active cut at 80%
Target sequence (Q9GZU1 whole entry, looked up): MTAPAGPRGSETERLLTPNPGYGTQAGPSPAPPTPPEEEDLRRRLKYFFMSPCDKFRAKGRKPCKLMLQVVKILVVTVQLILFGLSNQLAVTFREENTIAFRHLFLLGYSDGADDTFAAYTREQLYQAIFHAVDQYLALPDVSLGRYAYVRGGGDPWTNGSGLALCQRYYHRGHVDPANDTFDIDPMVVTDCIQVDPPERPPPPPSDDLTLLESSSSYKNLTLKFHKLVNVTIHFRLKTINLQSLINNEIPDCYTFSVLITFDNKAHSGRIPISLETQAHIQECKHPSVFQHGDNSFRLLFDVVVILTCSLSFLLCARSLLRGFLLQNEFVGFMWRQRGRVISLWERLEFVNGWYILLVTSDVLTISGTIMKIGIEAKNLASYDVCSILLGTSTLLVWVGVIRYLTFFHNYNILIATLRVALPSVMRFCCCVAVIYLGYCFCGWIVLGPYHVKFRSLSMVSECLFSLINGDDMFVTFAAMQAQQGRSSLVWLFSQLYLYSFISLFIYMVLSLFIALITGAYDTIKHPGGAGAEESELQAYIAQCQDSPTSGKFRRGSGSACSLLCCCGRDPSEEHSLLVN
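Calcium fluorescence on an FDSS kinetic reader gave the read-out. Tet-induced TRPML1-DL cells were plated overnight, dye-loaded (Ca8 with quencher, 45-90 min, room temperature, dark), then read 110 s after compound addition, and again 110 s after 4uM final 54-4 (EC80).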
TRPML1 blocker – blocks the human TRPML1 channel | Q9GZU1 | TRPML1-inducible cells, Ca2+ dye fluorescence, FDSS; hits give low values; inhibition of EC80 agonist-evoked calcium signal | activity change, negative = inhibition, % (concentration not given with the values) | 0.02% of 390,000 active | AID 624415; in the data active means activity change below about -50%; inconclusive means about -30% to -50%; inactive means above about -30%;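 note: stimulus is agonist 54-4 at its EC80 concentration; % is set by controls: 0 for no effect and ±100 for the full control effect; compound concentration not given in the record; the text of the record puts the active cut at -80%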
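Tet-induced TRPML1-DL cells loaded with Ca8 no-wash calcium dye were read kinetically on FDSS. Compound addition was followed by EC80 agonist 54-4 (4 uM final); inhibition was read over 110 s.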
gsp ag – gsp mutant agonism; gsp mutant cells, cAMP HTRF, 30 min; control for the full effect not named in the record; Potency, µM (top dose mostly 76.9 µM), inactives show top-dose activation (cAMP increase), actives largely listed as activators; 0.13% of 340,000 active; AID 624287; active = well fitted activation curve with a large enough effect; inconclusive = small, poorly fitted or top-dose-only effect, or another doubt; inactive = no such curve, though single readings can be large or run the other way; cell line not stated here;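 note: phosphodiesterase inhibitor Ro 20-1724 added with compounds to block cAMP breakdown; potency is the fitted concentration of half-maximal effect; nearly all actives have a fitted effect of over 60% in size; about a fifth of the inactives were tested at one dose only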
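Cells stably selected in G418 were plated at 2000/well, grown 16-24 hr, then given compounds in DMSO with the PDE inhibitor […] (300 uM solution added) for 30 min at 37C; cAMP was read by HTRF.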
ClpP mod – qHTS Assay for Activators of ClpP. ATP-dependent Clp protease proteolytic subunit (Bacillus subtilis (strain 168)), P80244. purified B. subtilis ClpP, FRET peptide cleavage, 20 min. Potency, µM (titrated, usually from 57.5 µM), inactives show at the top dose activity change, negative = active. 1.9% of 340,000 active. AID 651965, 2013; active = well fitted falling curve with a large enough effect; inconclusive = small, poorly fitted or top-dose-only effect; inactive = no such curve, though single readings can be large or run the other way; note: potency is the fitted concentration of half-maximal effect; the source files actives as falling curves though it sought activators and does not explain the sign; nearly all actives have a fitted effect of over 65% in size; many hits overshoot -100%
Target sequence (P80244 whole entry, looked up): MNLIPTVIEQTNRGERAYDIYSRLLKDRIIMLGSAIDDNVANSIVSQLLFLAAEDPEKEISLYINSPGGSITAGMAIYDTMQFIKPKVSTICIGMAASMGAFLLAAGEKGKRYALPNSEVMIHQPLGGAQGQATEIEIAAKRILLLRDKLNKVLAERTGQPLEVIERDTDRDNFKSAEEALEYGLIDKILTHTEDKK
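ClpP 10 microg/mL final, pH 8 Tris/KCl buffer with BSA, glycerol, Tween-20; compound pinned in; FRET-FV substrate; RT 20 min; Ex320/Em430; ΔFRET vs ADEP 5.8 microM, DMSO, no enzyme.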
gsp antag – gsp mutant antagonism. gsp-mutant cells, cAMP HTRF, 30 min; control for the full effect not named in the record. Potency, µM (highest dose often 76.9 µM), for inactives: at the highest dose activity change, negative = inhibition, usual class: inhibitors. 0.4% of 340,000 active; active = falling curve of any shape with a large fitted effect; inconclusive = falling curve, mostly with a smaller effect; inactive = flat or rising curve; cell line not stated here;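 note: intracellular cAMP measured with PDE inhibitor Ro 20-1724 present during compound exposure; potency is the fitted concentration of half-maximal effect; % is set by controls: 0 for no effect and ±100 for the full control effect; nearly all actives have a fitted effect of over 65% in size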
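Cells in G418 medium, seeded 16-24 h, 37C; buffer exchange to DPBS + 1 mM CaCl2, 0.5 mM MgCl2, 0.05% BSA; cpds in DMSO + […] (300 uM stock), 30 min 37C; HTRF cAMP detection.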
Menin-MLL FL inh – menin-MLL binding inhibition, fluorescein peptide | FP activity change, % at 61.4 µM | Fluorescence polarization, fluorescein-MLL peptide displacement from menin | 290,000 tested, under 10 active | AID 1766; inconclusive = falling polarisation curve, or a change in total fluorescence; inactive = total fluorescence flat and polarisation flat or rising; no compound was filed as active; the % refers to the polarisation; negative = inhibition;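 note: % of control where 0% means no effect; inhibitors lower the polarisation; unlabelled MLL peptide was the positive control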
An asterisk follows results filed as active; ? = inconclusive; / = no result given; & = joins results of further samples; [ ] = remark or other dose.

SMILES	TRPML1 ag	TRPML1 blocker	gsp ag	ClpP mod	gsp antag	Menin-MLL FL inh
C#CCOCCOCCOCCNc1nc(N2CCN(C(=O)[C@H]([C@@H](C)CC)n3cc([C@@H](N)CO)nn3)CC2)nc(N2CCN(C(=O)[C@H](Cc3ccc(O)cc3)n3cc([C@@H](N)C(C)CC)nn3)CC2)n1 (stereo partly drawn)	-0.4	7	-18%	-0.6%	12%	-5.4
CCCn1c(-c2cccc(F)c2)nc2c1c(=O)[nH]c(=O)n2Cc1ccccc1	0.9	-13	-38%[inhibitor]	/	-7%	1.4
CCCC(NCC(=O)Nc1cc(S(=O)(=O)N2CCOCC2)ccc1OC)c1ccccc1 (stereo not drawn)	0.3	27	-31%	1.4%	12%	/
CCc1nc2ccccc2nc1N1CCN(S(=O)(=O)c2ccc(Cl)cc2)CC1	4.4	-14	?	/	-17%	-0.8
O=C1c2cccc3cccc(c23)C(=O)N1CC1CCN(CC(O)COCc2ccc3c(c2)OCO3)CC1 (stereo not drawn)	-0.5	-6	12%	28µM*	2%	3.2
O=C(Cn1ncc2c(=O)oc3ccccc3c21)N(Cc1ccco1)C1CCCCC1	0.1	-4	-67%[inhibitor]	-1.2%	-10%	-2.1
O=C(NC(=S)N(CCc1ccccc1)CCc1ccccc1)c1ccco1	-0.1	-3	17%[15.4 µM]	-1.4%	-4%	2.9
CC(C)NC(=O)NC(=O)CN1C(=O)NC(Cc2c[nH]c3ccccc23)C1=O (stereo not drawn)	0.7	0	-35%[inhibitor]	0.4%	6%	3.8
CCOC(=O)c1cc(-c2ccccc2)nn1Cc1ccccc1	-0.9	16	/	0.2%	/	/
CN(C)c1nc(OCCNC(=O)COc2ccc(Cl)cc2Cl)nc(N2CCOCC2)n1	1.4	3	-1%	4.5%	-9%	0.9
CCOC(=O)C(CCCCCCC(NC(C)=O)(C(=O)OCC)C(=O)OCC)(NC(C)=O)C(=O)OCC	-0.7	20	-8%[15.4 µM]	-2.0%	15%	1.5
CC(=O)Nc1ccc(NC(=O)C/C(C)=N/NC(=O)C(=O)Nc2ccc(C)c(Cl)c2)cc1	-0.6	14	5%	/	6%	3.6
CCC1CCCCN1CCCNC(=O)Cn1c2ccccc2c2nc(=O)cc(C)n21 (stereo not drawn)	0.9	6	1%	4.1%	10%	/
Cc1ccc(C(=O)CSc2nnc(CNc3ccc(C)cc3C)o2)cc1	1.6	20	?	-0.1%	1%	-1.4
CN(CCC#N)C(=S)Nc1ccc(F)cc1	0.9	-20	-12%[15.4 µM]	/	-1%	1.5
O=S(=O)(c1ccc(NC(=S)N2CCCCC2CO)cc1)N1CCOCC1 (stereo not drawn)	0.9	-4	-38%[inhibitor]	0.3%	/	/
Cc1ccc(CNC(=O)C2CCCN2S(=O)(=O)c2ccc(Cl)cc2)cc1 (stereo not drawn)	0.4	9	22%	-2.2%	2%	-4.3
COc1ccc(/C=N/n2cncn2)cc1COc1ccc(NC(C)=O)cc1	0.5	5	-31%[inhibitor]	-3.6%	16%	4.8
Cc1cc(C)n2nc(SCC(=O)Nc3ccc(O)cc3)nc2n1	0.5&0.7	-4&7	9%[15.4 µM]	1.9%	4%	/
C[C@H](CO)N1C[C@H](C)[C@@H](CN(C)C)Oc2c(NC(=O)c3ccncc3)cccc2C1=O	-0.3	16	/	-0.8%	2%	/
COc1ccc(-n2cc(-c3ccccc3)c3c(=S)nc[nH]c32)cc1	0.0	39	4%	-1.0%	?	-0.1
N#Cc1cc2c(nc1SCC(=O)N1CCCCC1)CCCC2	-0.7	1	29%	-3.8%	-6%	1.4
CCC(C)NC(=O)CCNS(=O)(=O)c1ccc(Br)cc1 (stereo not drawn)	0.3	5	5%	-1.5%	6%	3.5
CCNC(=S)N1CCC(NC(=O)C2CCCCC2)CC1	-0.1	-7	-2%	1.7%	-2%	2.4
CC[C@H](C)[C@H]1CNC(=S)N1CC1CCN(CCCC2CCCC2)CC1	-0.2	-14	/	-0.6%	7%	/
COc1ccc(C(=O)/C=C/c2ccccc2)c(OC)c1	0.4	13	2%	-2.6%	-10%	0.8
C[C@@H]1CN([C@H](C)CO)S(=O)(=O)c2ccc(C3=CCCCC3)cc2O[C@H]1CN(C)C(=O)Cc1cccnc1	-0.5	10	7%	1.0%	/	/
O=C(CSc1nc2ccccc2c(=O)n1-c1ccc(F)c(Cl)c1)Nc1cccc(S(=O)(=O)N2CCOCC2)c1	0.0	2	2%	-6.7%	1%	5.6
Cc1cc2oc(=O)c(CC(=O)NCCCN(C)C)c(C)c2c2occ(C(C)(C)C)c12	0.7	14	10%	/	4%	-0.4
COc1ccc2cc(S(=O)(=O)N3CCCCCC3)ccc2c1	1.1	25	-2%[15.4 µM]	/	-6%	1.7
COc1ccc(NC(=O)c2cccc(N3CCCS3(=O)=O)c2)c(OC)c1	0.6	-13	/	1.3%	/	/
Cc1ccc(OCC(=O)NCCNC(=O)c2ccco2)cc1C	-0.3	26	9%	/	3%	-7.1
Cc1nn(CC(=O)N2CCN(C34CC5CC(CC(C5)C3)C4)CC2)c(C)c1[N+](=O)[O-]	0.0	14	-3%[15.4 µM]	1.3%	12%	1.2
O=C(Nc1nccs1)c1ccc(N2C(=O)[C@@H]3[C@H](C2=O)[C@H]2C=C[C@@H]3C2)cc1	0.1	-29	-88%[inhibitor]	-1.8%	-4%	3.8
CC(=O)c1ccc(NC(=O)C2CCC(C)NC2=O)cc1 (stereo not drawn)	-0.8	-3	-2%	0.9%	-11%	4.4
Cc1cccc(OCCCn2c(=O)sc3ccccc32)c1	5.5	17	11%	-3.9%	?	3.7
CCOC(=O)c1cnc(SCC(=O)Nc2cc(C(F)(F)F)ccc2N2CCOCC2)nc1N	-0.5	26	14%	-26%	6%	0.0
CCOC(=O)Cn1cc(C#N)c2ccccc21	-0.9	12	-4%[15.4 µM]	1.8%	3%	0.1
CCOC(=O)c1c(C)n(C)c2ccc(OC(=O)c3ccc([N+](=O)[O-])cc3)cc12	0.2	-1	22%[15.4 µM]	-0.1%	4%	0.9
Cc1ccc(NC(=O)CN2C(=O)COc3ccc(S(=O)(=O)Nc4ccccc4)cc32)c(C)c1	0.2	12	/	1.2%	/	/
CC(C)OC(=O)C1C(=O)CC(C)(O)C(C(=O)OC(C)C)C1c1cccc(O)c1 (stereo not drawn)	-0.4	13	-2%	-0.1%	10%	-4.0
O=C(CCl)NCCCN(C(=O)C(Cl)Cl)c1ccc([N+](=O)[O-])cc1	0.6	-14	-29%	0.4%	0%	3.2
CC1(C(=O)NC2CCCCC2)CCC(=O)N1Cc1cccs1 (stereo not drawn)	-0.5	-2	-33%[inhibitor]	-0.2%	9%	2.5
Cc1ccc(-n2c(SCC(=O)N3CCOCC3)nc(O)cc2=O)cc1	0.3	17	-126%[inhibitor]	0.7%	3%	/
CCCCC(=O)NC(=S)Nc1cccc(Cl)c1N1CCCCC1	-0.3	-7	5%	-0.6%	-14%	3.3
COc1ccc(-c2nn(C)c(=O)c3ccccc23)cc1NS(C)(=O)=O	-1.3	-6	4%	-1.7%	10%	-0.6
COc1ccc(N(CC(=O)Nc2ccc(F)c(F)c2)S(=O)(=O)c2c(C)n[nH]c2C)cc1	0.6	3	6%	-1.2%	?	/
Cc1cc(NC(=O)CSc2nnnn2-c2ccccc2F)no1	-0.1	2	24%[15.4 µM]	/	-30%	1.1
CCCCSc1nc(O)c(C2OC(=O)c3c2ccc(OC)c3OC)c(=O)n1C (stereo not drawn)	-0.4	-7	8%	-1.6%	-20%	-1.4
CCN(C(=O)CSc1ncc2c(n1)-c1cc(Cl)ccc1N(Cc1ccccc1)S2(=O)=O)c1cccc(C)c1	0.0	-1	/	-6.5%	/	/
O=C(N/N=C/c1ccc2c(c1)OCO2)c1sc2cccc(Cl)c2c1Cl	-1.0	22	9%	-16%	4%	1.1
Cc1ccc2c(c1)c(-c1csc(N)n1)c(C)n2C	-1.3	-8	7%[15.4 µM]	-12%	-1%	3.6
O=C(COc1cccc(C(F)(F)F)c1)Nc1ccc2[nH]ncc2c1	0.0	4	7%	-1.5%	-2%	0.5
CCCOc1ccc(C2C(C(=O)c3ccco3)=C(O)C(=O)N2CCCn2ccnc2)cc1OC (stereo not drawn)	-0.2	10	?	-1.2%	/	/
O=C(Cn1cc(SCc2ccc(C(F)(F)F)cc2)c2ccccc21)N1CCOCC1	-0.1	26	/	-0.2%	/	/
C=C1[C@@H](O)[C@H](CC(C)C)N(Cc2ccccc2Br)S1(=O)=O	1.3&-1.2	-23	9%	1.3%&2.2%	2%	/
CCCCCCCC(=O)O	/	/	/	0.1%	3%	-2.0
CC(C)(Oc1ccc(Cl)cc1)C(=O)NCc1ccco1	0.1	-7	0%	-1.1%	-2%	3.0
CCCCC1=CC2=C(c3ccco3)C(=O)C(C)(OC(=O)c3ccc(OC)cc3)C(=O)C2=CN1CCCCO (stereo not drawn)	0.2	22	/	-4.2%	5%	-10[11.7 µM]
COc1ccc(/C=N/NC(=O)c2ccc3c(c2)OCCO3)c(OC)c1	0.7	15	-25%[15.4 µM]	-3.8%	-16%	5.0

Continued, overlapping the part above by three compounds.
SMILES	TRPML1 ag	TRPML1 blocker	gsp ag	ClpP mod	gsp antag	Menin-MLL FL inh
CC(C)(Oc1ccc(Cl)cc1)C(=O)NCc1ccco1	0.1	-7	0%	-1.1%	-2%	3.0
CCCCC1=CC2=C(c3ccco3)C(=O)C(C)(OC(=O)c3ccc(OC)cc3)C(=O)C2=CN1CCCCO (stereo not drawn)	0.2	22	/	-4.2%	5%	-10[11.7 µM]
COc1ccc(/C=N/NC(=O)c2ccc3c(c2)OCCO3)c(OC)c1	0.7	15	-25%[15.4 µM]	-3.8%	-16%	5.0
COc1cccc(N(C(=O)Cn2nnc(-c3cccs3)n2)C(C(=O)NC2CCCCC2)c2ccncc2)c1 (stereo not drawn)	0.1	7	-30%[inhibitor]	-1.4%	7%	-2.9
Cc1cc(Cl)ccc1OCCCC(=O)N1CCOCC1	0.4	17	0%	-1.5%	-7%	-0.6
C/C=C(/C)C(=O)Nc1cccc(C2=NOC3(C2)C[C@@H](C(N)=O)N(C(=O)C2(C)CC2)C3)c1 (stereo partly drawn)	-0.5	15	/	-0.8%	5%	3.7
CCc1cccc(NC(=O)Cn2ccn3nc(-c4ccc(OC)c(OC)c4)cc3c2=O)c1	0.6	6	/	?	/	/
C=C1CCN(Cc2ccc(OC)cc2)S(=O)(=O)c2ccccc21	2.8	57	/	/	/	-1.1
S=C(NN=C1CCCCCC1)Nc1ccc(Cl)cc1	0.4	17	29%	-0.8%	-30%	2.6
CCOC(=O)c1[nH]c2ccccc2c1NC(=O)c1ccc(S(=O)(=O)N2CCCCC2)cc1	-0.7	1	9%	7.9%	-21%	4.2
CCN(CC)c1cc(C)c2cc(NC(=O)c3cccc(F)c3)ccc2n1	-0.2	-8	/	-5.9%	/	/
